Source: PubChem (several laboratories)
ALR inh = inhibitors of human ALR sulfhydryl oxidase, primary screen, biochemical, H2O2 detection, HRP-luminol luminescence, single point | 290,000 compounds, 3.8% hits | AID 485317, 2010 | purified ALR, DTT oxidation | FAD-linked sulfhydryl oxidase ALR (Homo sapiens), P55789 | inhibition, % (concentration not given with the values);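 active = mean and each replicate at 75% or more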;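 also: stock transfer was 7.5 nL into about 7.5 µL; 0% = neutral wells and 100% = wells with inactivated enzyme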
Target sequence (P55789 whole entry, looked up): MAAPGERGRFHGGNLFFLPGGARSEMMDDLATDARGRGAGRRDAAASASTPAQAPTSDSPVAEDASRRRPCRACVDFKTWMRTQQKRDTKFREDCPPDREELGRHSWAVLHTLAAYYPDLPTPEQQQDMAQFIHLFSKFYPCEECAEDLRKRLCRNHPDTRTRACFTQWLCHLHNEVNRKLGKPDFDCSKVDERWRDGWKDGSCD
HNF4A DNA FP = change in binding of human HNF4A to DNA, primary screen, biochemical, fluorescence polarization, FITC-DNA; activity change, % at 10 µM; Hepatocyte nuclear factor 4-alpha (Homo sapiens), P41235; 1 h; 360,000 compounds, 0.3% hits; AID 1224865, 2016; in the data active = activity change above about 30%, passing the limit was not always enough;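 also: controls were the assay level and a saturating level of protein; the project sought stronger binding though the title names inhibitors; some compounds called inactive have numbers as strong as hits; positive values seem to mean higher polarization but the record does not say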
rRNA inh HTS = reduced GFP signal of wild-type E. coli, primary screen, bacterial rRNA inhibitor project, GFP/RFP fluorescence, OD600, single point | E. coli WT GFP vs humanized-ribosome RFP mutants, 24 h; hits give low values; DMSO median 0, no signal -100 | AID 720706, 2013 | GFP signal change (wild-type ribosome), % (test concentration not listed) | 350,000 compounds, 1.6% hits;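 active = significant combined selectivity score with lowered wild-type GFP, culture density cut under 30%, mutant RFP and density less affected; inactive = any of these conditions unmet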; also: one replicate is shown; some compounds called inactive have numbers as strong as hits
UCH37 DUB inh = inhibitors of human UCH37 deubiquitinase, primary screen, biochemical, Ub-AMC cleavage, fluorescence; Ubiquitin carboxyl-terminal hydrolase isozyme L5 (Homo sapiens), Q9Y5K5; purified proteasome/UCH37; inhibition, % (no concentration beside the values); 330,000 compounds, 0.33% hits;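 active = mean of two replicates above 20%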;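 also: 0% = compound-free wells with enzyme and 100% = wells lacking proteasome; stock transfer was 100 nL into about 20 µL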
Target sequence (Q9Y5K5 whole entry, looked up): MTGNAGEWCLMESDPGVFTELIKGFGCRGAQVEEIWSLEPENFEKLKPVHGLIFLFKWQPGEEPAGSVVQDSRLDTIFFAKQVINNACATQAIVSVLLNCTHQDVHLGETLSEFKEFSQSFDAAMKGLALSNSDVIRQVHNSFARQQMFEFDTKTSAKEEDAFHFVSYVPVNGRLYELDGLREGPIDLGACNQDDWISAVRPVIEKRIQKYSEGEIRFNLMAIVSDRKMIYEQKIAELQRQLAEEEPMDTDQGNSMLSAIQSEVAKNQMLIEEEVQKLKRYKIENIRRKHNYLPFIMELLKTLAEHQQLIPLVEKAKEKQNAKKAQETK
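Reagent: Ub-AMC substrate; assay system: Proteasome-associated human UCH37 deubiquitinase; controls: no-proteasome and no-compound wells; read-out: % inhibition of Ub-AMC cleavage fluorescence; timing: 30 min preincubation with enzyme, 25 min cleavage at room temperature; signal: AMC fluorescence from Ub-AMC cleavage, excitation 355 nm, emission 460 nm; buffer or medium: Tris-HCl pH 7.4 plus ovalbumin, ATP-MgCl2, DTT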
E coli growth = E. coli growth inhibition, primary screen, OD600. Escherichia coli growth, 23 h; hits give low values. OD600 absorbance (no concentration beside the values). 330,000 compounds, 0.21% hits;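 active = OD600 absorbance below the run mean of sample wells minus 3.6 SD, in any replicate, cut at about 0.56 in these data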;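 also: stock transfer was 300 nL into about 60 µL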
B2AR ag = beta2AR agonists driving receptor internalization, primary screen, cell-based, FAP fluorogen, flow cytometry; Am2.2-beta2AR cells; reference of the scale not given here; 340,000 compounds, 0.43% hits; Beta-2 adrenergic receptor (Homo sapiens), P07550; response, % (no concentration beside the values); AID 504454, 2011;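 active = response above a set limit, near 3 SD of response in nonfluorescent compounds, cut at about 42% in these data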;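 also: stock transfer was 100 nL into about 11 µL; a reference agonist was the positive control; negative values mostly stem from fluorescent compounds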
Target sequence (P07550 whole entry, looked up): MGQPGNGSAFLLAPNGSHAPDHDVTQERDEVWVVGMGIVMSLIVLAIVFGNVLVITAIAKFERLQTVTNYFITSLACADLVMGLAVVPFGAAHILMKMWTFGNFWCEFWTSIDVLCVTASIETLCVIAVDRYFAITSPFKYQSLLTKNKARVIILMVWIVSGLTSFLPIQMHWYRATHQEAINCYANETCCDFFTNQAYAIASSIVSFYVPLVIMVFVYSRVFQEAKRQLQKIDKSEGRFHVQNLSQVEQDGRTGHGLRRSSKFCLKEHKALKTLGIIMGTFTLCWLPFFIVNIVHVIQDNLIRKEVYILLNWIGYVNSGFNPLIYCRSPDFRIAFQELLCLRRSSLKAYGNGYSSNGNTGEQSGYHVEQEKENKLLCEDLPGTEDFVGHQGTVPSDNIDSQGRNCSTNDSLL
FGF22 binding = binders of human FGF22 protein, primary screen, FGF22 synaptogenesis inhibitor project, biophysical, thermal shift, single point; calls only at 9.99 µM; 340,000 compounds, 1.5% hits; recombinant FGF22 thermal shift, SYPRO orange fluorescence; percent of sucrose octasulfate shift, DMSO zero; Fibroblast growth factor 22 (Homo sapiens), Q9HCT0;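 active = melting point raised past a set limit in the mean and every replicate; three in four hits are not shown here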
rRNA inh HTS OD600 = also measured in rRNA inh HTS; calls as there; OD600 change, %; measured here: OD600 growth;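 optical density of the mix in the first replicate; 0 = DMSO median and -100 = no signal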
rRNA inh HTS RFP = recorded beside rRNA inh HTS, whose call it bears; RFP signal change, %; measured here: RFP humanized mutant strains;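 first replicate; 0 = DMSO median and -100 = no signal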
The depositor's hits bear a star; i = inactive; . = no result given.

Results follow in this order: UCH37 DUB inh | HNF4A DNA FP | rRNA inh HTS OD600 | E coli growth | rRNA inh HTS | rRNA inh HTS RFP | ALR inh | B2AR ag | FGF22 binding
- Cc1cccc(NC(=O)c2cccc(C(F)(F)F)c2)c1
    0.3 | -1.8 | 3.9 | 0.658 | 0.2 | 1.2 | -7.3 | 8.2 | i
- CC(=O)NCC1CCCN(Cc2cn(-c3ccccc3F)nc2-c2cc(C)sc2C)C1 (stereo unspecified)
    0.3 | -0.2 | 3.2 | 0.689 | -2.8 | -2.0 | -3.2 | -15.7 | i
- COC(=O)c1ccc(C(=O)Nc2ccc(F)cc2)cc1
    1.7 | 4.8 | 24.8 | 0.682 | 11.2 | -6.0 | -26.8 | -9.0 | i
- CCOC(=O)C1(Cc2cccc(F)c2)CCN(Cc2ccon2)CC1
    1.8 | 3.9 | -10.4 | 0.713 | -0.7 | 1.7 | -8.2 | 1.7 | i
- COc1ccc(-n2c(Cc3cccn3C)nnc2SCC(=O)Nc2ccc(C(C)=O)cc2)cc1
    4.5 | 5.7 | 5.8 | 0.732 | 2.7 | 0.3 | 24.2 | -11.2 | i
- O=C(CSc1nc(O)c(C2CCCCC2)c(=O)[nH]1)NCC1CCCO1 (stereo unspecified)
    1.9 | -1.2 | . | 0.706 | . | . | . | -0.3 | .
- O=C(Nc1ccon1)c1ccc(N2CCCCC2)c([N+](=O)[O-])c1
    4.5 | 1.0 | -29.4 | 0.708 | -23.6 | -7.5 | 1.4 | 10.8 | i
- C/C(=N\NC(=O)c1cc(-c2ccc(C)s2)nc2ccccc12)c1cccnc1
    . | -3.1 | -3.5 | . | -3.5 | 2.3 | -8.0 | 1.6 | i
- Cc1cc(OCCCn2ccnc2)cc(C)c1Cl
    0.5 | 1.5 | . | 0.658 | . | . | 1.0 | -0.9 | .
- NC(=O)C1CCN(C(=O)CCNS(=O)(=O)c2cc(Br)cnc2N)CC1
    -4.4 | -0.2 | 12.7 | 0.662 | 12.1 | 1.3 | 3.3 | -1.6 | i
- CC1(C)CC(=O)C/C(=N/NC(=O)COc2ccc3ccccc3c2Br)C1
    . | 5.4 | -18.7 | . | -8.1 | 2.6 | -12.4 | 0.3 | i
- C=CCSc1nnc(NC(=O)c2ccc(NC(C)=O)cc2)s1
    1.2 | 1.4 | -3.0 | 0.706 | -2.1 | -0.8 | -6.0 | -3.7 | i
- Cc1cc2c(s1)c1cnn(CC(=O)NCCc3ccccc3)c(=O)c1n2C
    1.9 | . | . | 0.692 | . | . | 0.9 | . | .
- CC(=O)c1cccc(NC(=O)NCc2ccco2)c1
    0.7 | 1.2 | 2.2 | 0.708 | 2.6 | 7.1 | -20.7 | -4.5 | .
- Cc1nnn(C23CC4CC(CC(C4)C2)C3)n1
    1.1 | 1.4 | . | 0.689 | . | . | -5.5 | 3.9 | .
- Cc1c(Cl)cccc1NC(=O)C1CC(=O)N(C2CCCC2)C1 (stereo unspecified)
    . | 0.2 | 0.0 | . | 0.7 | -1.8 | . | -4.1 | i
- CCCC(=O)Nc1sc(Cc2ccccc2)c(C)c1C(N)=O
    1.7 | 6.8 | -16.3* | 0.715 | -23.6* | -2.3* | . | 1.2 | i
- O=C(Cn1ncc2c([nH]c3ccccc32)c1=O)N1CCN(c2ccc(F)cc2)CC1
    -4.4 | 0.2 | 2.8 | 0.72 | 8.0 | -1.2 | -22.9 | 3.2 | i
- CCOC(=O)CNC(=O)C12CC3CC(CC(C3)C1)C2
    0.1 | -0.6 | 3.9 | 0.628 | 6.7 | -0.8 | -3.8 | 8.3 | i
- Cc1nn(Cc2nnc(SCC(=O)Nc3cccc(C(F)(F)F)c3)n2C)c(C)c1[N+](=O)[O-]
    5.8 | 2.7 | -11.9 | 0.667 | -17.5 | -3.1 | . | -8.5 | i
- CN(CC1CCCO1)S(=O)(=O)c1ccc(C(=O)Nc2ccc3c(c2)OCO3)cc1 (stereo unspecified)
    3.1 | 0.0 | 3.2 | 0.656 | 0.6 | -0.5 | -7.7 | -11.1 | i
- COc1ccc(CCN=c2c([N+](=O)[O-])nn(-c3cccc(C)c3)n2O)cc1OC
    4.5 | 3.8 | -19.8 | 0.677 | -23.9 | 5.1 | -2.1 | -10.5 | i
- CCCN1CCN(CCCNC(=O)c2ccc3c(c2)NC(=O)c2ccccc2S3)CC1
    1.5 | -2.9 | -1.3 | 0.702 | 3.6 | -0.5 | -3.7 | 6.0 | i
- COc1ccc(N(C)S(=O)(=O)c2cccc(C(=O)NC3CCCCC3C)c2)cc1 (stereo unspecified)
    4.1 | -4.6 | -14.8* | 0.706 | -27.0* | -5.7* | 1.9 | 2.1 | i
- O=C(CSc1cccc[n+]1[O-])c1ccc(Cl)cc1
    1.6 | -4.2 | -3.9 | 0.697 | -8.3 | -2.9 | -1.2 | -8.4 | i
- CCN(CC)C(=O)c1ccccc1NC(=O)c1ccccc1
    -0.6 | -0.4 | 4.8 | 0.639 | 5.7 | 1.7 | -3.1 | 17.7 | i
- O=C(CCN1C(=O)C2C3C=CC(C3)C2C1=O)Nc1c(F)cc(F)cc1Br (stereo unspecified)
    -1.6 | 0.3 | . | 0.75 | . | . | -6.7 | 6.7 | .
- COc1c(C)cccc1C(=O)Nc1cc(Cl)ccc1N1CCOCC1
    1.0 | 0.7 | . | 0.739 | . | . | -5.9 | 2.7 | .
- CSCCC(NS(=O)(=O)c1ccc2c(c1)OCCO2)C(=O)N(C)Cc1ccc(C)cc1 (stereo unspecified)
    -2.7 | -1.2 | -26.4 | 0.68 | -10.9 | -4.6 | -6.3 | 8.0 | i
- O=C(CCNC(=O)c1ccccc1Cl)Nc1nc2ccccc2s1
    5.4 | 4.9 | -15.5 | 0.653 | -10.5 | 0.4 | -7.1 | -6.2 | i
- Cc1cccc(C)c1NC(=O)c1ccc(OCc2c(C)noc2C)cc1
    -0.1 | -1.8 | -1.6 | 0.689 | 1.9 | -2.3 | -4.3 | -4.7 | i
- Cc1cc(C(=O)NC(C)C2CCCO2)no1 (stereo unspecified)
    1.5 | -0.7 | 13.9 | 0.724 | 16.4 | 1.5 | 3.0 | -4.6 | i
- COc1ccc(NS(=O)(=O)c2ccc(O)c(C(=O)OCC(=O)N3CCCCC3)c2)cc1
    2.2 | 2.6 | -2.4 | 0.68 | -1.5 | 4.5 | -2.9 | -4.8 | i
- CCN(CC)C(=O)Cn1cnc2ccccc2c1=O
    3.5 | -0.8 | . | 0.735 | . | . | . | -2.5 | .
- CCC1(C)Cc2c(sc3c2c(=O)n(C)c2nnc(SCCc4ccccc4)n32)CO1 (stereo unspecified)
    2.5 | -3.5 | . | 0.717 | . | . | 1.7 | 0.9 | .
- Cc1cccc(NC2=Nc3ccccc3N3C2=Nc2c(c(C)nn2-c2ccccc2)C3c2ccc(O)c(O)c2)c1 (stereo unspecified)
    -2.0 | 5.1 | . | 0.789 | . | . | 1.2 | -1.8 | .
- O=C(NCC1(O)CCCCC1)C1CCC(=O)N(CCc2ccccc2)C1 (stereo unspecified)
    2.9 | -0.4 | 8.6 | 0.683 | -0.5 | -1.6 | 0.7 | 2.2 | i
- Cc1nn(-c2ccc(F)cc2)c2sc(C(=O)OCC(=O)N3CCC(C)CC3)cc12
    -3.8 | 4.0 | . | 0.704 | . | . | . | 7.6 | .
- COc1ccc(-c2noc(CCC(=O)N3CCN(c4ccccc4Br)CC3)n2)cc1
    1.7 | 0.5 | -12.8 | 0.674 | -20.1 | 4.0 | . | 5.8 | i
- Cc1ccc(C2c3[nH]c4ccccc4c3C[C@H]3C(=O)N(c4ccccc4C(=O)NCCN4CCOCC4)C(=O)N23)cc1 (stereo partly specified)
    5.2 | 3.6 | . | 0.742 | . | . | -1.4 | -8.0 | i
- COc1ccc(C2/C=C\CN(S(=O)(=O)c3ccc(C)cc3)CC(=O)N2Cc2ccc(F)cc2)cc1 (stereo unspecified)
    1.1 | -1.9 | 8.1 | . | 3.8 | -1.5 | . | 3.2 | i
- O=C1C=C(c2ccc3c(c2)OCO3)C[C@@H](c2ccc(F)cc2)C1
    4.6 | -3.8 | 1.2 | . | -1.1 | -2.5 | -3.1 | -4.2 | i
- COC(=O)c1ccc(COc2ccc3c(C)c(C)c(=O)oc3c2)o1
    -48.5 | 2.2 | 16.3 | 0.689 | 0.1 | -2.1 | -9.9 | -0.9 | .
- O=c1[nH]c(COc2ccccc2)nc2ccccc12
    7.5 | -0.1 | 14.6 | 0.617 | 15.8 | -1.1 | 0.0 | -12.3 | i
- NC(=O)CNc1ncc(C(F)(F)F)cc1Cl
    1.2 | 4.9 | 13.4 | 0.667 | 11.9 | 3.5 | 0.6 | 2.5 | i
- CC(C)(C)c1ccc(OCc2ccc(C(=O)N/N=C3\CC4CC=CC34)cc2)cc1 (stereo unspecified)
    . | 3.6 | . | . | . | . | -0.5 | -11.8 | .
- COc1ccc(N2CC(C(=O)NC3CC(C)(C)NC(C)(C)C3)CC2=O)cc1 (stereo unspecified)
    1.0 | 3.3 | 9.9 | 0.673 | 11.1 | -1.0 | -7.9 | -2.0 | i
- COc1cccc(/C=N/NC(=O)CSc2nnc(C)n2-c2ccccc2)c1O
    . | -1.1 | . | . | . | . | 7.5 | 3.9 | .
- Cc1ccc(C(=O)N2CCN(c3ccc(NC(=O)COc4ccccc4C)cc3)CC2)cc1
    2.2 | -0.5 | 7.8 | 0.693 | 8.2 | 0.3 | -4.1 | 40.1 | i
- CCN(CC)Cc1c(-c2ccccc2)[nH]c2ccc(C)cc2c1=O
    0.9 | -0.8 | . | 0.719 | . | . | 96.6* | 4.8 | .
- CC(=O)C(Cc1ccccc1)(Cc1ccccc1)C(C)=O
    3.2 | 0.0 | 4.0 | 0.674 | 3.0 | -0.2 | -2.8 | -2.6 | i

The list is partial, so the mix of outcomes need not match the whole.
